Bioassay records deposited in PubChem by National Center for Advancing Translational Sciences (NCATS).
D2 PAM – human D2 receptor positive allosteric modulation | DiscoveRx D2 beta-arrestin cells, luminescence, 90 min; 100% = 57 uM dopamine signal | hit rate 0.23% among 360,000 | potentiation, % (no concentration beside the values) | AID 624464 | P14416; active = potentiation of 50% or more; inconclusive = 30% to 50%; inactive = 30% or less;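 note: compound concentration not given in the record; tested on top of an EC20 dose of dopamine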
Target sequence (P14416 whole entry, looked up): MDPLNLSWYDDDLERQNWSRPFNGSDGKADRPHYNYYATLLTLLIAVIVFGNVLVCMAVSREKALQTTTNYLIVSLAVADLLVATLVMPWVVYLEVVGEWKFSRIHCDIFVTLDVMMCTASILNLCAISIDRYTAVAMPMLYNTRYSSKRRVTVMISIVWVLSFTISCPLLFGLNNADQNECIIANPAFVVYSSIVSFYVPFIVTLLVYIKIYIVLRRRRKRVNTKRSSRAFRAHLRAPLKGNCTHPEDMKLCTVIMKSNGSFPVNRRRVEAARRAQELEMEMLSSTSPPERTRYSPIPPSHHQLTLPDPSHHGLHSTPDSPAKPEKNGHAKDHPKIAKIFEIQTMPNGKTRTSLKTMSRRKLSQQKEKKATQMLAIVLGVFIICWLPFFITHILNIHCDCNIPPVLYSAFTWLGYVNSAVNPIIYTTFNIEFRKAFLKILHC
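PathHunter D2 cells, attached overnight at 37 deg C, received compound in DMSO plus dopamine at EC20 (50 nM final) for 90 min at 37 deg C. Beta-arrestin recruitment was read as luminescence after 1 h with detection reagent at ambient temperature.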
Six1-Eya2 blk – blocks human Six1 binding to Eya2. AlphaScreen GST-Six1/His-Eya2 binding, biochemical; stronger effect = lower value; control for the full effect not named in the record. activity change, % (concentration not given with the values). AID 651725. Q15475+O00167. hit rate 0.56% among 360,000; in the data active = activity change below about -65%; inconclusive = about -30% to -65%; inactive = above about -30%; note: % is set by controls: 0 for no effect and ±100 for the full control effect
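GST-Six1 + His-Eya2 (5X stock: 250/500 nM); Tris pH 8.0, 300 mM NaCl, 0.05% BSA, 0.02% Tween 20; GSH donor/Ni acceptor beads; 1 h 37 °C dark; AlphaScreen readout.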
D2 ag – human D2 receptor agonism in beta-arrestin assay | DiscoveRx PathHunter D2 beta-arrestin, luminescence, 90 min; 100% = 57 uM dopamine signal | activation, % (concentration not given with the values) | P14416 | hit rate 0.084% among 360,000; in the data active = activation above about 40%; inconclusive = about 15% to 40%; inactive = below about 15%; note: compound concentration not given in the record; the text of the record calls up to 30% inactive
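Agonist mode: compounds alone added to overnight-plated D2 PathHunter cells for 90 min at 37 C, with 57 uM final dopamine (EC100) defining full response. Beta-arrestin recruitment detected by chemiluminescent reagent, read after 1 h at ambient temperature.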
PINK1 modulator – changes PINK1 expression; PINK1 immunofluorescence, high-content cytometry, 24 h; Potency, µM (titrated, usually from 76.6 µM), inactives show at the top dose activation (PINK1 increase), usual class: activators; hit rate 0.2% among 410,000; AID 624263; active = well fitted activation curve with a large enough effect; inconclusive = small, poorly fitted or top-dose-only effect; inactive = flat fitted curve, though single readings scatter; cell line not stated here;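 note: potency is the fitted concentration of half-maximal effect; % of control where 0% means no effect; nearly all actives have a fitted effect of over 65% in size; a mitochondrial uncoupler was the plate control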
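Measures PINK1 amount and localization on or inside mitochondria by immunofluorescence. Stable cells get compounds at 5 concentrations for 24 hours before fixation and staining; CCCP controls included.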
TRPML1 ag – activates the human TRPML1 channel | TRPML1-expressing cells, Ca2+ dye fluorescence, FDSS; host cell line not named in the record; reference of the full effect not given here | Q9GZU1 | activation, % (no concentration beside the values) | hit rate 0.12% among 410,000; in the data active = activation above about 50%; inconclusive = about 30% to 50%; inactive = below about 30%; note: 0% is about no effect; the text of the record puts the active cut at 80%
Target sequence (Q9GZU1 whole entry, looked up): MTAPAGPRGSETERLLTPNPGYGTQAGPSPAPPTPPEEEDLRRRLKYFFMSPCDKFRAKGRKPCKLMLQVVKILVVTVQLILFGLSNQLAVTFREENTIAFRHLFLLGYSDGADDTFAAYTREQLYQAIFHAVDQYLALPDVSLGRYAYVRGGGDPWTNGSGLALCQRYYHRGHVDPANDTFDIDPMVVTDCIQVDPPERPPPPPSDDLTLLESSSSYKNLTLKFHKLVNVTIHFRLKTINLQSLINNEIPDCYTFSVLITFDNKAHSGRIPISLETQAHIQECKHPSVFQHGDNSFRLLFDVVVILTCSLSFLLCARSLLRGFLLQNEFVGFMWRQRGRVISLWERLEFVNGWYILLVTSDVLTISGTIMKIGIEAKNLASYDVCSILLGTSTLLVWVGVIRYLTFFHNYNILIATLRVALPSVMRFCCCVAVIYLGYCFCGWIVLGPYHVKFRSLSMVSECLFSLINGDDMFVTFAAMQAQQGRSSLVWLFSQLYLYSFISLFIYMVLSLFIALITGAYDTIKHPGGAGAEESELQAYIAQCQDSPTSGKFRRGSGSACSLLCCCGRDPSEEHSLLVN
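Tet-induced TRPML1-DL cells, 1,500 per well, cultured overnight, were loaded with a no-wash Ca2+ dye for 45–90 min. Calcium fluorescence was recorded on the FDSS for 110 s after compound addition, before the EC80 agonist (4 uM 54-4) was added.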
CtBP-E1A blk – CtBP/E1A binding inhibition | hit rate 0.49% among 340,000 | activity change, % (no concentration beside the values) | AlphaScreen GST-E1A/His-CtBP binding, 1536-well; stronger effect = lower value; control for the full effect not named in the record; in the data active means activity change below about -65%; inconclusive means about -30% to -65%; inactive means above about -30%; note: % is set by controls: 0 for no effect and ±100 for the full control effect; compound concentration not given in the record
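AlphaScreen with 125 nM GST-E1A and 125 nM His-CtBP (5X stocks) in Tris pH 8.0, 300 mM NaCl, BSA, Tween 20, TCEP. Compounds preincubated 2 h at 37 deg C, then glutathione donor/nickel acceptor beads added for 1 h at 37 deg C in dark.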
Starred values were filed as active, the others as inactive; ? = inconclusive; . = not tested or not shown; [ ] = dose if it differs, or a comment.

Under each structure: D2 PAM, Six1-Eya2 blk, D2 ag, PINK1 modulator, TRPML1 ag, CtBP-E1A blk
- COC(=O)c1ccc(CN2CCN(CCc3ccccc3)C(CCO)C2)cc1 (stereo not given)
    -20.4, 4.1, -1.8, 2.5%, -0.9, 2.3
- O=C(COc1coc(CN2CCc3ccccc3C2)cc1=O)Nc1ccc(F)cc1
    -25.6, 0.4, 1.5, -0.1%, 2.5, 1.7
- NC(=O)C1CCN(Cc2nc3cc(C(F)(F)F)ccc3c(=O)[nH]2)CC1
    -11.1, -0.9, -3.4, -1.1%, 0.4, .
- CCCOc1ccc(C(=O)N2CCCC2)cc1OC
    -2.2, -0.9, -1.9, 7.7%[38.3 µM], -0.8, 2.9
- O=S(=O)(Nc1cccnc1Cl)c1ccc(-c2ccccc2)cc1
    -4.4, -3.6, -2.3, -2.4%, -0.2, 2.7
- CN(C)S(=O)(=O)c1cccc(NC(=O)COC(=O)c2cccn2C)c1
    -8.4, -2.6, -3.1, 1.0%, -0.6, .
- COC(=O)c1ccc(CSc2nc3c(c(=O)n2-c2ccc(Br)cc2)SCC3)o1
    -12.1, 3.5, -1.5, 9.9%[38.3 µM], 2.2, -13.2
- Clc1ccc(C[n+]2cc(-c3ccccc3)n3c2CCCCC3)c(Cl)c1
    -9.9, 0.2, -2.5, 25.4%, 0.3, 0.7
- Cc1ccc(OCC(=O)Nn2c(C)nc3ccccc3c2=O)c(C(C)C)c1
    3.7, -0.4, -0.8, 4.5%[38.3 µM], -0.4, -1.5
- COc1ccc(CC(=O)N(C)CC(=O)Nc2c(C)cccc2C)cc1S(=O)(=O)N1CCOCC1
    5.6, 7.8, 0.6, -1.9%, -0.8, -3.5
- O=C(Cn1nnc(-c2ccccc2)n1)c1ccccc1
    -7.0, 12.2, -1.6, -1.6%[38.3 µM], -0.4, 18.1
- CC(C)Oc1ccc(CCC(=O)NNC(=S)NCc2ccccc2)cc1
    -5.9, -10.3, -3.1, 1.1%, 2.1, -6.6
- CCC1(c2ccccc2)NC(=O)N(CC(=O)Nc2ccccc2N2CCCCC2)C1=O (stereo not given)
    16.0, -8.9, -4.3, -1.7%, 2.9, -3.6
- CC(C)CCOc1ccccc1C(N)=O
    -3.6, -1.5, -4.2, -0.3%, 0.5, .
- OCCN1CCN(C2Cc3cc(Cl)ccc3Sc3ccc(Cl)cc32)CC1 (stereo not given) (tested in a mixture with another compound)
    -42.1, -7.2, -3.3, 2.8%, -0.3, -14.8
- COc1ccccc1C(=O)NCC(=O)OC(C)C(=O)NC(=O)NC1CCCCC1 (stereo not given)
    -20.6, 0.0, -3.4, -1.7%, -0.5, 2.7
- CCCS(=O)(=O)c1nnnn1-c1cccc(OC)c1
    -17.5, -0.4, 0.9, -4.6%[38.3 µM], 4.6, 9.6
- O=C1C2CC=CCC2C(=O)N1Cc1nnc(-c2ccccc2Br)o1 (stereo not given)
    -2.3, 11.8, -2.1, -0.4%, -0.1, -0.1
- CCn1c(CNc2ccc(Cl)cc2)nnc1SCc1ccc(C)cc1
    -0.2, -10.1, -3.6, 3.3%, -0.5, -0.1
- CC(=O)c1cccc(NC(=O)NCc2ccccn2)c1
    -9.0, -12.0, -2.8, ?, 0.1, 1.2
- CCCCOc1ccc(C(=O)NCC(=O)NC2CCN(Cc3ccccc3)CC2)cc1
    -14.7, 3.1, -3.5, 1.5%, 0.0, -7.0
- COc1ccc(C2CC(c3ccc(Cl)cc3Cl)Nc3nc(N)nn32)cc1OC (stereo not given)
    2.7, -2.0, -3.8, 1.0%, 0.3, -0.4
- CCOc1ccccc1C(C(=O)NC1CCCC1)N(C(=O)c1csnn1)C1CC1 (stereo not given)
    -6.4, 11.5, 4.9, 1.1%, 0.0, 2.8
- CS(=O)(=O)N1CCN(c2ccccc2NC(=O)c2cccc3ccccc23)CC1
    3.2, -3.5, -1.9, -0.4%, -1.0, -3.8
- O=C(CCSc1nnc(-c2ccncc2)o1)Nc1ccc(F)cc1
    -13.2, -0.3, -1.8, 2.3%, 0.9, -2.6
- Cc1ccc(NC(=O)NC(=O)CSc2nnc(-c3ccc(OC(F)F)cc3)n2N)c(C)c1
    -12.7, 0.4, 9.2, 1.9%, 1.9, -2.7
- Nc1nc(=S)c2ncn(C3OC(CO)CC3O)c2[nH]1 (stereo not given)
    -10.7, 6.6, -4.0, 0.3%, 0.7, 19.8
- CC1CN(C(=O)c2ccncc2)CC(C)O1 (stereo not given)
    -3.0, -9.8, -2.6, -4.3%[38.3 µM], 1.1, -8.9
- COc1ccc(C)cc1NS(=O)(=O)c1ccc2c(c1)N(C(C)=O)CCO2
    -6.8, 0.3, -4.6, -1.2%, -0.3, -2.6
- Cc1ccc2nc(SCC(=O)Nc3ccc4c(c3)CCC4)[nH]c2c1
    -5.4, -3.3, 0.5, 2.2%, 7.4, -6.8
- CCN1C(C(=O)Nc2cc(C)on2)=C(O)c2ccccc2S1(=O)=O
    -0.5, -1.2, -2.0, -2.0%, 3.8, -3.6
- CN(CCCN1CCOCC1)C(=O)c1ccc2nc(Cc3cccc(Cl)c3)oc2c1
    -5.8, 8.2, -1.1, -0.6%, -0.3, -6.0
- Cn1c(CCNC(=O)c2ccco2)nc2ccccc21
    -15.5, 2.7, -0.3, 2.2%, -0.7, 4.1
- COc1ccc(CN2CCN(C(=O)c3ccc(-c4ccccc4)cc3)CC2)c(OC)c1OC
    1.5, -0.5, 0.7, -0.8%, 0.4, 7.0
- Cc1ccc(CN(CC(=O)NC2CCCC2)C(=O)c2csnn2)cc1
    -7.9, 3.5, -0.3, -0.9%, -0.8, -1.0
- CC1CCc2[nH]c3ccc(C(=O)NCC4CCCO4)cc3c2C1 (stereo not given)
    -14.3, -5.4, -3.7, 0.1%, 1.2, -5.7
- CN(C)c1ccc(-c2nc3ccccc3c(=O)[nH]2)cc1
    -12.9, -2.9, -1.5, 8.9%, -0.6, -14.9
- C/C(Cn1cnc([N+](=O)[O-])n1)=N\NC(=O)c1ccccc1
    1.9, 9.7, -1.2, 0.4%, -0.2, 6.7
- Cc1cccc(NC(=O)c2sc3nc(-c4ccccc4)cn3c2C)n1
    -12.5, 5.7, 1.2, ., 0.7, 3.4
- Cn1c(=O)c2c([nH]c(=S)n2CCCc2ccccc2)n(C)c1=O
    -4.4, 0.3, 14.0, -0.3%, 0.3, -17.1
- CC(Cc1cccs1)NC(=O)Nc1ccc(F)cc1 (stereo not given)
    -23.1, 8.3, -1.3, -0.4%, 0.5, -6.3
- Cc1ccc(S(=O)(=O)N(C)C)cc1NC(=O)C(C)OC(=O)c1ccc2c(=O)n3c(nc2c1)CCC3 (stereo not given)
    -20.7, 13.0, -2.2, 1.3%, -0.8, .
- C(=C\c1ccccc1)/C=N/Nc1ccc2nncn2n1
    11.4, -5.6, 5.1, 2.9%, 3.1, .
- CCCCCN(C(=O)CCC(=O)OCC(=O)N(C)Cc1ccccc1C)c1c(N)n(CCCC)c(=O)[nH]c1=O
    -0.7, 12.0, -4.1, 0.1%, 0.7, 3.4
- Cc1noc(NS(=O)(=O)c2ccc(NC(=O)c3cc(-c4ccccc4Cl)nc4ccccc34)cc2)c1C
    -20.2, -24.4, 4.0, 0.3%, 2.7, -0.5
- CCCN1CC(=O)N2Cc3[nH]c4ccccc4c3C[C@H]2C1=O
    -14.4, -15.8, 5.0, 2.3%, 0.8, .
- Cc1ccsc1-c1nc(CSCC(=O)NCc2ccc3c(c2)OCO3)c(C)o1
    -12.5, -2.8, -5.1, 0.6%, 1.4, -17.3
- NNC(=O)c1ccc(CSc2n[nH]c(=O)[nH]c2=O)cc1
    1.6, -3.0, -0.5, 1.3%, -0.7, -27.9
- CSc1nc(C)cc(Oc2ccc(OCC(N)=O)nn2)n1
    0.8, 8.2, 5.0, 0.4%, -0.2, 8.9
- O=C(CCCc1c[nH]c2ccccc12)NCc1ccccc1F
    -3.4, -12.1, -4.0, -3.1%, 1.5, -11.4
- Cc1cccc(Oc2nc(-c3ccccc3)cc(C)c2S(C)(=O)=O)c1C
    -6.6, -1.2, -1.8, 4.2%, 3.5, 6.9
- COc1ccc(NC(=O)c2cccc(S(=O)(=O)N3CCCC3)c2)cc1OC
    -8.7, -5.6, -2.3, 1.5%, 1.1, -19.7
- CCC(=O)c1cn(CC(=O)OC)c2ccccc12
    -11.8, -6.9, -3.7, -0.9%, -0.2, -2.4
- Cc1ccc(C(c2nnnn2C2CCCC2)N2CCN3CCCC3C2)cc1 (stereo not given)
    10.0, -1.3, -2.1, -1.7%, 0.8, 6.9
- CCC(CC)C(=O)c1c[nH]c(C(=O)NCc2ccc(F)cc2)c1
    -11.7, -2.0, 1.5, -0.6%, 0.6, .
- CC(=O)c1cnc(Nc2nc(C)c3ccc(C)cc3n2)nc1C
    2.3, -12.1, -2.2, -1.9%, 0.4, -6.2
- CC(NC(=O)COC(=O)/C=C/c1ccco1)c1ccccc1 (stereo not given)
    -6.7, 0.0, -5.9, 1.6%, -0.8, 3.7
- COc1ccc(-c2sc3ccccc3c2-c2cc(OC)ccc2C=O)cc1
    ., -8.6, ., 0.2%, -0.1, -14.2

Shown with tabs: part of the list above.
SMILES	D2 PAM	Six1-Eya2 blk	D2 ag	PINK1 modulator	TRPML1 ag	CtBP-E1A blk
CCCN1CC(=O)N2Cc3[nH]c4ccccc4c3C[C@H]2C1=O	-14.4	-15.8	5.0	2.3%	0.8	.
Cc1ccsc1-c1nc(CSCC(=O)NCc2ccc3c(c2)OCO3)c(C)o1	-12.5	-2.8	-5.1	0.6%	1.4	-17.3
NNC(=O)c1ccc(CSc2n[nH]c(=O)[nH]c2=O)cc1	1.6	-3.0	-0.5	1.3%	-0.7	-27.9
CSc1nc(C)cc(Oc2ccc(OCC(N)=O)nn2)n1	0.8	8.2	5.0	0.4%	-0.2	8.9
O=C(CCCc1c[nH]c2ccccc12)NCc1ccccc1F	-3.4	-12.1	-4.0	-3.1%	1.5	-11.4
Cc1cccc(Oc2nc(-c3ccccc3)cc(C)c2S(C)(=O)=O)c1C	-6.6	-1.2	-1.8	4.2%	3.5	6.9
COc1ccc(NC(=O)c2cccc(S(=O)(=O)N3CCCC3)c2)cc1OC	-8.7	-5.6	-2.3	1.5%	1.1	-19.7
CCC(=O)c1cn(CC(=O)OC)c2ccccc12	-11.8	-6.9	-3.7	-0.9%	-0.2	-2.4
Cc1ccc(C(c2nnnn2C2CCCC2)N2CCN3CCCC3C2)cc1 (stereo not given)	10.0	-1.3	-2.1	-1.7%	0.8	6.9
